UCH37 inh: inhibitors of human deubiquitinating enzyme UCH37; Q9Y5K5; purified proteasome/UCH37, Ub-AMC cleavage fluorescence; inhibition, % (concentration not given with the values); hit rate 0.33% among 330,000; AID 588478;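 active means mean of two replicates above 20%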;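 further: 0% = compound-free wells with enzyme and 100% = wells lacking proteasome; stock transfer was 100 nL into about 20 µL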
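System: Proteasome-associated human UCH37 deubiquitinase; Input: 0.15 nM proteasome in added enzyme buffer; Also added: Ub-AMC substrate from 1 µM stock; Incubation: 30 min compound-proteasome preincubation then 25 min substrate reaction, room temperature; Detection: fluorescence, ex 355 nm, em 460 nm; Read-out: % inhibition of Ub-AMC cleavage fluorescence; Benchmarks: no-proteasome and no-compound wells.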
Beta apoptosis: beta cell apoptosis inhibition; INS-1E cytokine-induced death, ATP luminescence, 48 h; percent of positive-control rescue, neutral wells zero; AID 435005; hit rate 0.8% among 300,000; protection from apoptosis, % (no concentration beside the values);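 active means all replicates at 75% or more, or half of them and the mean; inconclusive means half reach 75% but not the mean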;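 further: 0% = cytokine-treated negative control wells and 100% = positive control rescue; higher means more ATP so stronger rescue from cytokine killing; wells of about 40 µL received 100 nL stock; the first replicate is given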
Bfl-1 A1 inh: inhibitors of the anti-apoptotic protein A1, read as caspase activation; MEF A1-2A-BIM cells, Caspase-Glo 3/7 luminescence, 3 h; percent of clofoctol response, vehicle zero; caspase activation, % (no concentration beside the values); hit rate 0.066% among 330,000; AID 2462;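 active means over half of replicate activation scores above 10%, or exactly half above 10 with the replicate mean above 10; inconclusive means replicate mean below 10 yet half the replicates above 10; inactive means over half of replicates below 10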;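 further: wells of about 30 µL received 50 nL stock; many hits fall short of the cut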
RanGTP-Impb inh: inhibitors of RanGTP-importin-beta interaction, primary screen, biochemical, FRET, CFP-Ran, YFP-importin-beta, homogeneous. cell-free CFP-Ran/YFP-importin-beta FRET ratio. inhibition, % (concentration not given with the values). hit rate 1.1% among 300,000;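 active means most replicates above 15%; inconclusive means exactly half above 15%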;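 further: 0% = DMSO wells and 100% = Ran loaded with GDP instead of GTP; wells of about 40 µL received 100 nL stock; the first replicate is given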
LANA-H2A inh: blocks KSHV LANA binding to histone H2A/H2B | hit rate 0.6% among 320,000 | cell-free LANA-H2A/H2B peptide, fluorescence polarization | inhibition, % (test concentration not listed) | Q9QR71; in the data active means inhibition mostly above about 10%, no sharp cut-off; inactive means mostly below about 6.7%;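 further: stock transfer was 7.5 nL into about 10 µL; 0% = median of vehicle wells and 100% = median of positive control wells; one replicate is shown; the record names a cut of 25% in any replicate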
Target sequence (Q9QR71 whole entry, looked up): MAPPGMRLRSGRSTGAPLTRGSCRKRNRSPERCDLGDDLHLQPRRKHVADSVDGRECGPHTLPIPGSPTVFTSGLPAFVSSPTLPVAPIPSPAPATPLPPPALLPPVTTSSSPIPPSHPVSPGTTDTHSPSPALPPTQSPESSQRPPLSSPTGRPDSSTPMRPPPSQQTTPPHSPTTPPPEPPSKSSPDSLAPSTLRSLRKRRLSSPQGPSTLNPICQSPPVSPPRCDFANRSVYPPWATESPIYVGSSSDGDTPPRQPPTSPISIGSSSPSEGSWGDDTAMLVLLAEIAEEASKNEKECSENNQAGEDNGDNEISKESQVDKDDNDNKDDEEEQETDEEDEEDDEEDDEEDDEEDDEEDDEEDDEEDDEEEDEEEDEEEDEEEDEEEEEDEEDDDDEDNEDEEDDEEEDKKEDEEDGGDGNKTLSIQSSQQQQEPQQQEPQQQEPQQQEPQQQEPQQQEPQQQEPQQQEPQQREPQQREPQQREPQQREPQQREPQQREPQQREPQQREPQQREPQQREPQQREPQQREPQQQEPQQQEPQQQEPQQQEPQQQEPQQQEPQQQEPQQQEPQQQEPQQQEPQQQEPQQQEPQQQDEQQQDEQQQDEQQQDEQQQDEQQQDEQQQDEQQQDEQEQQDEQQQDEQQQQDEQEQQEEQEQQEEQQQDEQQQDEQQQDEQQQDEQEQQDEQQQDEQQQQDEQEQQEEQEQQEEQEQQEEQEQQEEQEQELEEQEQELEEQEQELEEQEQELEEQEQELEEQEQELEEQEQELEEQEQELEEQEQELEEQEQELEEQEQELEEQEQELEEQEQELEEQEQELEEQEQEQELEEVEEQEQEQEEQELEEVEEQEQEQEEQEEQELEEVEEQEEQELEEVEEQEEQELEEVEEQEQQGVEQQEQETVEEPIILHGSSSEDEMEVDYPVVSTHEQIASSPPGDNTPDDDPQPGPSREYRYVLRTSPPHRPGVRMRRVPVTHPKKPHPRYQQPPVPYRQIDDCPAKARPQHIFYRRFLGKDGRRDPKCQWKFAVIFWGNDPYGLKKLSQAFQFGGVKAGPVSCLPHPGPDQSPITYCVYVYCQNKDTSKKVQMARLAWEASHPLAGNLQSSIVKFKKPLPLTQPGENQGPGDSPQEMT
T cruzi repl: T. cruzi replication inhibition; inhibition, % (concentration not given with the values); AID 1885; hit rate 1.4% among 300,000; T. cruzi beta-gal in NIH3T3, luminescence, 90 h;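 active means mean inhibition across valid replicates above about 55%, limit read from the data; inconclusive means mean below that limit but half or more replicates reach it; inactive means mean below it, under half of replicates reach it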;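 further: signal also drops with host cell toxicity which is not excluded here; 0% = plate median of DMSO wells and 100% = zero luminescence signal; higher percent means less beta-gal luminescence so fewer parasites; stock transfer was 50 nL into about 50 µL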
B2AR ag: human beta-2 adrenergic receptor agonism by FAP. Am2.2-beta2AR cells, FAP receptor internalization, flow cytometry; reference of the scale not given here. response, % (concentration not given with the values). P07550. AID 504454. hit rate 0.43% among 340,000;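 active means response above a set limit, near 3 SD of response in nonfluorescent compounds, cut at about 42% in these data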;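 further: stock transfer was 100 nL into about 11 µL; a reference agonist was the positive control; negative values mostly stem from fluorescent compounds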
Calb FLC: affects C. albicans growth with fluconazole. hit rate 0.57% among 300,000. growth inhibition, % (test concentration not listed). C. albicans CaCi-2 (fluconazole-resistant clinical isolate) + fluconazole, Alamar Blue growth, 48 h. AID 1979;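 active means most replicates above 75%; inconclusive means exactly half above 75%; inactive means most below 75%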;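 further: all wells also contain fluconazole at 8 µg/ml as a sub-toxic cotreatment; 0% = median of DMSO wells and 100% = median of geldanamycin control wells; wells of about 8 µL received 7.5 nL stock; the first replicate is given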
An asterisk follows results filed as active; ? = inconclusive; nt = not tested or not shown.

SMILES	UCH37 inh	Beta apoptosis	Bfl-1 A1 inh	RanGTP-Impb inh	LANA-H2A inh	T cruzi repl	B2AR ag	Calb FLC
COCC(=O)NCc1ccc2c(c1)cc(C)n2C	2.8	-3	0.5	-5.8	4.3	3	3	7
COc1ccc(S(=O)(=O)NC2CC(C)(C)NC(C)(C)C2)cc1	3.8	-4	0.3	-3.6	0.5	3	-4	11
O=C(CSc1nnc(COc2ccccc2)n1Cc1ccco1)c1ccc(F)cc1	2.9	4	0.2	-1.8	-2.0	12	-2	16
CCSc1nnc(NS(=O)(=O)c2ccc(C)cc2)s1	4.1	-3	-0.3	3.4	3.9	-14	5	?
COc1cc2c(cc1OC)C(c1cccc(Cl)c1)CC(=O)N2 (stereo unspecified)	3.7	0	0.6	-3.3	-0.6	5	3	-3
COC(=O)Cn1c2ccc(OC)cc2c2nc(C)sc21	3.8	-4	-0.7	-6.9	-1.2	8	7	0
Cc1ccc(OCC(=O)c2c(O)c3ccccc3oc2=O)cc1C	3.5	3	-1.0	-2.4	-1.4	-9	-1	15
COc1cccc(N2CCN(CC(=O)NC(=O)NCc3ccco3)CC2)c1	1.3	-1	0.8	5.8	0.7	-11	-2	8
COc1cccc(NS(=O)(=O)c2ccc3c(c2)CC(=O)N3)c1	5.1	-1	-0.4	nt	5.5	nt	6	nt
O=C(N/N=C/c1ccc(OC(F)F)cc1OC(F)F)c1cccc(S(=O)(=O)N2CCOCC2)c1	nt	-4	0.2	3.4	-1.2	-6	2	21
Cc1ccc(OCC(=O)Nc2ccc3c(c2)nc(CCN2CCCCC2)n3C)cc1	6.0	0	-0.5	-5.1	0.4	26	9	nt
COc1cccc(N/C(N)=N/c2nc(C)cc(=O)[nH]2)c1	0.3	nt	-1.1	0.0	-0.8	-6	-3	2
CC(C)(C)[C@]1(O)CCN2C[C@H]3c4ccccc4CCc4cccc(c43)[C@@H]2C1	1.3	4	0.0	0.3	24*	30	7	nt
O=C(NN1CCOCC1)c1cc(S(=O)(=O)Nc2cccc(C(F)(F)F)c2)ccc1Cl	0.7	8	0.5	3.2	-5.4	-12	5	7
COc1ccc(S(=O)(=O)N2CCOCC2)cc1NC(=O)CN1CCCc2ccccc21	0.6	4	0.5	nt	1.7	nt	5	nt
COc1ccc(N2CCOCC2)c(NC(=O)COc2cccc(C)c2C)c1	3.3	2	-0.3	-3.4	1.8	10	4	-24
COC(=O)N/N=C/c1cn(Cc2ccc(Cl)cc2Cl)c2ccccc12	nt	23	-0.2	-0.1	2.2	20	-3	23
O=C(NCc1ccco1)c1ccc(NS(=O)(=O)c2cccc(F)c2)cc1	2.5	-10	0.4	0.7	5.2	5	6	4
COC(=O)[C@]1(CC(C)C)N[C@H](c2ccc(-c3ccc4c(c3)OCO4)cc2)[C@@H]2C(=O)N(C)C(=O)[C@@H]21	-1.6	-6	-0.3	-5.8	-2.3	-10	0	-7
NS(=O)(=O)c1cc(C(=O)OCCNC(=O)c2ccccc2)c(Cl)cc1Cl	4.8	-4	0.5	2.1	1.0	-3	3	1

Molecules from the list above that have an aryl thioether with sulfur outside any ring:
SMILES	UCH37 inh	Beta apoptosis	Bfl-1 A1 inh	RanGTP-Impb inh	LANA-H2A inh	T cruzi repl	B2AR ag	Calb FLC
O=C(CSc1nnc(COc2ccccc2)n1Cc1ccco1)c1ccc(F)cc1	2.9	4	0.2	-1.8	-2.0	12	-2	16
CCSc1nnc(NS(=O)(=O)c2ccc(C)cc2)s1	4.1	-3	-0.3	3.4	3.9	-14	5	?

(more compounds)
SMILES	UCH37 inh	Beta apoptosis	Bfl-1 A1 inh	RanGTP-Impb inh	LANA-H2A inh	T cruzi repl	B2AR ag	Calb FLC
O=C(NCCC1CCCCN1S(=O)(=O)c1cccs1)C(=O)NCc1ccccc1 (stereo unspecified)	nt	3	-0.3	3.0	nt	14	-10	9
Cc1ccc2cc3cc(C(=O)NCCCN4CCCCCC4)oc3nc2c1	-303	1	-1.7	-1.2	0.1	32	0	10
O=C(O)c1ccc([N+](=O)[O-])c(CS(=O)(=O)c2ccccc2)c1	1.9	-3	0.6	-1.5	1.0	-1	-3	14
COc1ccc2c(c1)OC[C@H]1[C@H]2N2C(=O)CN(Cc3ccc(Cl)cc3)C(=O)[C@@]2(C)[C@H]1c1ccccc1	1.7	11	0.8	nt	-2.8	nt	5	nt
COc1cc2c(cc1OC)C(c1ccccc1[N+](=O)[O-])N(C(C)=O)CC2 (stereo unspecified)	2.2	0	1.6	3.7	2.0	3	4	1
COc1ccc(-c2nnc(SCc3cccnc3)o2)cc1	-0.3	0	1.7	-0.6	2.6	7	-12	3
CC(C)C(c1nnnn1C1CCCC1)N1CCCCC1 (stereo unspecified)	-0.3	-2	-0.6	3.4	-6.6	-1	-4	-1
COC(=O)C(C)Sc1nc2c(c(-c3ccc(OC)cc3)c1C#N)-c1ccccc1C2=O (stereo unspecified)	5.2	6	0.1	-3.6	1.0	6	-7	-1
COc1ccc(C(=O)COC(=O)C(CCSC)NC(=O)COc2ccccc2)c(OC)c1 (stereo unspecified)	-0.6	0	3.1	-0.3	1.1	7	-4	0
CC(=O)c1ccc(N2C(=O)[C@@H]3C(C(=O)CCN4C(=O)c5ccccc5C4=O)=NN[C@@H]3C2=O)cc1	6.3	-8	0.7	?	2.0	-21	-3	-5
O=C(NCc1cccnc1)Nc1ccccc1C(F)(F)F	1.3	-4	0.4	6.2	3.1	-3	11	-10
CC1(C)CC(=O)C(C(C2=C(O)CC(C)(C)CC2=O)c2ccc(O)c([N+](=O)[O-])c2)=C(O)C1	7.9	-1	-0.2	1.2	-0.4	-2	5	18
O=c1[nH]nc(N/N=C/c2ccc(Cl)cc2Cl)c(=O)[nH]1	nt	0	0.3	9.1	7.2	-22	-10	1
O=C(COc1ccc(/C=N/NC(=O)c2cc3ccccc3o2)cc1Cl)Nc1ccccc1	nt	-4	64*	-2.8	-6.1	73*	8	12
Cc1nc(CNC(=O)C2CCC(=O)N(CCc3ccc(Cl)cc3)C2)sc1C (stereo unspecified)	nt	3	0.1	-0.5	1.5	0	-1	3
COc1ccc(S(N)(=O)=O)cc1C(=O)NCC1(N2CCCCC2)CCCCC1	0.9	-3	0.5	3.0	1.4	-12	2	10
Cc1ccc(NC(=O)Cn2ccc(=O)[nH]c2=O)cc1	3.1	-3	-0.2	3.6	1.8	-10	3	-4
Cc1ccc(C)n1-c1ccc(C(=O)N2CCC(C(N)=O)CC2)cc1	3.4	nt	nt	-1.6	nt	2	9	-2
COc1ccccc1S(=O)(=O)Nc1ccc(S(=O)(=O)Nc2nccs2)cc1	-0.2	-7	0.3	nt	-3.9	nt	-16	nt
Cc1ccc(C(=O)NC(C)c2ccc(-n3ccnc3)cc2)cc1 (stereo unspecified)	-3.1	-1	1.0	1.9	0.2	1	5	-9
Cc1cc(C)c(C(N)=O)c(Nc2cccc(Cl)c2)n1	6.0	-2	-0.9	5.4	-0.8	-13	-4	31
Cc1nc2c(sc3nc4c(cc32)COC(C)(C)C4)c(=O)n1Cc1ccccc1	-2.6	nt	0.5	-1.6	0.8	3	1	-10
Cc1nc2ccccc2c2oc(C(=O)Nc3ccc(C(C)C)cc3)cc12	3.2	79*	-0.5	-2.0	-0.3	?	12	-7
O=C(O)c1cn(-c2ccccc2)nc1-c1ccc(F)cc1	3.5	-2	1.1	5.3	-5.5	-13	0	-2
Cn1nccc1C(=O)N(CCN1CCCCC1)CC1CCCN(C2CCCC2)C1 (stereo unspecified)	3.5	nt	0.0	2.3	2.5	26	-7	-2
CCN(C(=O)COC(=O)/C=C/c1ccc(F)cc1)C1CCCCC1	0.8	-2	-2.0	nt	3.1	nt	1	nt
Cn1c(Cl)c(C(=O)Nc2ccc(Cl)cc2)c2ccccc21	-0.5	11	0.0	nt	-3.1	nt	-1	nt
O=C(NCCN1CCOCC1)c1ccncc1	1.2	-3	-0.1	4.5	4.0	-1	-2	-3
CS(=O)(=O)c1ccc(C(=O)NCC2(N3CCOCC3)CCCCC2)cc1	0.9	4	1.3	nt	1.8	nt	-5	nt
O=C(CCCc1cccs1)Nc1nc(-c2ccc(F)cc2)cs1	-0.4	1	0.3	-0.8	1.9	-1	3	-6

Filtered by structure, the compounds so far containing a Cl atom.
SMILES	UCH37 inh	Beta apoptosis	Bfl-1 A1 inh	RanGTP-Impb inh	LANA-H2A inh	T cruzi repl	B2AR ag	Calb FLC
COc1cc2c(cc1OC)C(c1cccc(Cl)c1)CC(=O)N2 (stereo unspecified)	3.7	0	0.6	-3.3	-0.6	5	3	-3
O=C(NN1CCOCC1)c1cc(S(=O)(=O)Nc2cccc(C(F)(F)F)c2)ccc1Cl	0.7	8	0.5	3.2	-5.4	-12	5	7
COC(=O)N/N=C/c1cn(Cc2ccc(Cl)cc2Cl)c2ccccc12	nt	23	-0.2	-0.1	2.2	20	-3	23
NS(=O)(=O)c1cc(C(=O)OCCNC(=O)c2ccccc2)c(Cl)cc1Cl	4.8	-4	0.5	2.1	1.0	-3	3	1
COc1ccc2c(c1)OC[C@H]1[C@H]2N2C(=O)CN(Cc3ccc(Cl)cc3)C(=O)[C@@]2(C)[C@H]1c1ccccc1	1.7	11	0.8	nt	-2.8	nt	5	nt
O=c1[nH]nc(N/N=C/c2ccc(Cl)cc2Cl)c(=O)[nH]1	nt	0	0.3	9.1	7.2	-22	-10	1
O=C(COc1ccc(/C=N/NC(=O)c2cc3ccccc3o2)cc1Cl)Nc1ccccc1	nt	-4	64*	-2.8	-6.1	73*	8	12
Cc1nc(CNC(=O)C2CCC(=O)N(CCc3ccc(Cl)cc3)C2)sc1C (stereo unspecified)	nt	3	0.1	-0.5	1.5	0	-1	3
Cc1cc(C)c(C(N)=O)c(Nc2cccc(Cl)c2)n1	6.0	-2	-0.9	5.4	-0.8	-13	-4	31
Cn1c(Cl)c(C(=O)Nc2ccc(Cl)cc2)c2ccccc21	-0.5	11	0.0	nt	-3.1	nt	-1	nt

Compound activity as filed in PubChem.
